TRPV1 potentiator: potentiators of human vanilloid receptor 1 (TRPV1); TRPV1-expressing cells, Fluo-8 calcium influx, capsaicin EC20 potentiation; host cell line not named in the record; control for the full effect not named in the record; Q8NER1; 320,000 compounds, 0.02% hits; potentiation, % at 8.33 µM; AID 540277; active means potentiation above 80%; inconclusive means 30% to 80%; inactive means below 30%; also: 0% is about no effect
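TRPV1-expressing cells were cultured overnight at 35.5C and loaded with Fluo-8 calcium dye for 40 to 90 min at room temperature. After a 10 s baseline, compound was added and calcium influx was read kinetically for 3 min (ex 480/em 520 nm).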
TRPML1 ag: activates the human TRPML1 channel | Q9GZU1 | TRPML1-expressing cells, Ca2+ dye fluorescence, FDSS; host cell line not named in the record; reference of the full effect not given here | activation, % (test concentration not listed) | 410,000 compounds, 0.12% hits; in the data active = activation above about 50%; inconclusive = about 30% to 50%; inactive = below about 30%; also: 0% is about no effect; the text of the record puts the active cut at 80%
Target sequence (Q9GZU1 whole entry, looked up): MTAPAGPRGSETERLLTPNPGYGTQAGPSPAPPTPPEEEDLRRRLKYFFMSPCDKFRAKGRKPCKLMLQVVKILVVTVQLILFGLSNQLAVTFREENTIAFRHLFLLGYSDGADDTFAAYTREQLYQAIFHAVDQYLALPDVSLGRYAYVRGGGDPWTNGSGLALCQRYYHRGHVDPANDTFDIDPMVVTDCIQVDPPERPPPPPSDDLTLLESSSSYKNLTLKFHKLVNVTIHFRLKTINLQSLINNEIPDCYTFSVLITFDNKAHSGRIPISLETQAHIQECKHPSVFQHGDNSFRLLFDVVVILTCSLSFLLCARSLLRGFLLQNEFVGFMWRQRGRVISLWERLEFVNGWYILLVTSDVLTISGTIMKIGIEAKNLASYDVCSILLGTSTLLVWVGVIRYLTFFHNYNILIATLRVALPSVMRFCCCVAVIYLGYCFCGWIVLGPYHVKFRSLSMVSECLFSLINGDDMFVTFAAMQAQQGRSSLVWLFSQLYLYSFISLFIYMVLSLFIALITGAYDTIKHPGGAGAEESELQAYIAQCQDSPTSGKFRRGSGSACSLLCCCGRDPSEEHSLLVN
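TRPML1-DL cells, Tet-induced overnight (~16 h, 37 degrees C), loaded 45-90 min at room temperature with Ca8 no-wash calcium dye plus quencher. FDSS fluorescence: 10 s baseline, compound pin-transfer, 110 s agonist read, then EC80 54-4 (4uM final) and 110 s antagonist read.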
D2 PAM: potentiates the human D2 dopamine receptor allosterically | P14416 | 360,000 compounds, 0.23% hits | potentiation, % (test concentration not listed) | DiscoveRx D2 beta-arrestin cells, luminescence, 90 min; 100% = 57 uM dopamine signal; active = potentiation of 50% or more; inconclusive = 30% to 50%; inactive = 30% or less;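 also: compound concentration not given in the record; tested on top of an EC20 dose of dopamine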
Target sequence (P14416 whole entry, looked up): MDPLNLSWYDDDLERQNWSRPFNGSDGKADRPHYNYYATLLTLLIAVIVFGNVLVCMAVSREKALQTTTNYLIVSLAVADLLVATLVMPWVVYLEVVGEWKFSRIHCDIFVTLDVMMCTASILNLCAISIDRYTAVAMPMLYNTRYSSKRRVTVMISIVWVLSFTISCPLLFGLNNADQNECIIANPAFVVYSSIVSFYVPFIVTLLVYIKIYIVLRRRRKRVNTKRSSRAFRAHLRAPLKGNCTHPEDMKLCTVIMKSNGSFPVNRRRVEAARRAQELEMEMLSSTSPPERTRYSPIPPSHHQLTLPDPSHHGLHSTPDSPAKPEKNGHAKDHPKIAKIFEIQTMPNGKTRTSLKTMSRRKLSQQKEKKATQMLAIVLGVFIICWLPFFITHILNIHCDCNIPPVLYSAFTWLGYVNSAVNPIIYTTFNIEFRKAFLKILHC
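PathHunter beta-arrestin assay in DiscoveRx D2 cells. Compounds were added with an EC20 of dopamine (50 nM final) for 90 min at 37 deg C. Luminescence was read 1 h after detection reagent, with 57 uM dopamine as the EC100 control.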
TRPML1 inh: blocks the human TRPML1 channel | Q9GZU1 | TRPML1-inducible cells, Ca2+ dye fluorescence, FDSS; active compounds read low; inhibition of EC80 agonist-evoked calcium signal | activity change, negative = inhibition, % (no concentration beside the values) | 390,000 compounds, 0.02% hits; in the data active means activity change below about -50%; inconclusive means about -30% to -50%; inactive means above about -30%;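 also: stimulus is agonist 54-4 at its EC80 concentration; % is scaled to controls: 0 for no effect and ±100 for the full control effect; compound concentration not given in the record; the text of the record puts the active cut at -80%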
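Tet-induced TRPML1-DL cells loaded with Ca8 no-wash calcium dye were read kinetically on FDSS. Compound addition was followed by EC80 agonist 54-4 (4 uM final); inhibition was read over 110 s.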
CtBP-E1A blk: inhibitors of CtBP/E1A interaction. AlphaScreen GST-E1A/His-CtBP binding, 1536-well; active compounds read low; control for the full effect not named in the record. activity change, % (test concentration not listed). 340,000 compounds, 0.49% hits. AID 651724; in the data active means activity change below about -65%; inconclusive means about -30% to -65%; inactive means above about -30%; also: % is scaled to controls: 0 for no effect and ±100 for the full control effect
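In 5 uL wells, 23 nL compound meets equimolar GST-E1A and His-CtBP (5X stock 125 nM each) for 2 h, 37 °C. Beads (5X, 50 ug/mL) then 1 h, 37 °C, dark.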
Six1-Eya2 blk: inhibitors of human Six1/Eya2 interaction; AID 651725; activity change, % (concentration not given with the values); 360,000 compounds, 0.56% hits; Q15475+O00167; AlphaScreen GST-Six1/His-Eya2 binding, biochemical; active compounds read low; control for the full effect not named in the record; in the data active = activity change below about -65%; inconclusive = about -30% to -65%; inactive = above about -30%; also: % is scaled to controls: 0 for no effect and ±100 for the full control effect
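AlphaScreen luminescence read after one hour at 37 °C in darkness. Pin-transferred compounds met GST-Six1 and His-Eya2 protein (5X stock 250 nM/500 nM) plus glutathione donor and Ni-chelate acceptor beads (5X, 50 ug/mL).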
Starred values were filed as active, the others as inactive; ? = inconclusive; nt = no result given; & = joins results of further samples.

SMILES	TRPV1 potentiator	TRPML1 ag	D2 PAM	TRPML1 inh	CtBP-E1A blk	Six1-Eya2 blk
CC(=O)N1CCOc2ccc(S(=O)(=O)NCC3CCC(C(=O)NCCC(C)C)CC3)cc21 (stereo not given)	6	-0.7	-8	-11	0	4
O=[N+]([O-])c1ccc2[nH]c(O)c(N=NC(=S)Nc3cccnc3)c2c1	-1	0.3	-13	-7	-88*	-80*
CS(=O)(=O)N1CCN(C(=O)c2ccccc2F)CC1	-4	1.2	?	-2	5	6
COc1cccc(C2c3[nH]c4ccccc4c3CCN2C(=O)c2ccccc2F)c1OC (stereo not given)	7	-0.1	-19	-13	nt	-12
N/C(=N\c1nc2ccccc2o1)NC(=O)c1ccccc1F	-5	-0.2	0	5	3	-4
Cc1ccc(OCC(=O)NNC(=S)NCc2ccccc2)cc1	2	-0.3	-7	-11	1	2
O=C(Nc1nnc(-c2ccco2)o1)c1ccc(Cl)cc1	1	-1.3	-17	-17	-17	-1
CC(NC(=O)c1ccccc1)c1ccc(F)cc1 (stereo not given)	-3	0.0	-8	60	0	-2
COC(=O)C1=C(C)NC(=S)NC1c1ccc(-c2ccccc2C(=O)OC)o1 (stereo not given)	-5	0.1	-2	22	-2	-5
CC(=O)Nc1cccc(OCC(O)Cn2c(C)nc3ccccc32)c1 (stereo not given)	10	-0.3	-9	-11	-1	2
CC(C)n1nccc1NC(=O)Nc1ccccc1	?	-0.4	-8	-3	-6	13
Cc1ccc(CCNS(=O)(=O)c2cc3c(cc2Cl)NC(=O)CO3)cc1	-2	-0.6	-4	-6	-1	-4
CCc1cccc(C)c1NC(=O)CCCC(=O)O	-29	-0.1	-11	-3	6	5
Cc1ccc(NC(=O)C2CCN(S(=O)(=O)c3cccnc3)CC2)cc1C	-20	-0.7	-5	23	nt	4
CCN(CC)CCN(C(=O)c1ccc(Br)s1)c1nc2cc3c(cc2s1)OCO3	14	-0.6	-23	-4	6	-4
COc1ccc(CCC(C)NC(=O)Cc2ccc(OC)c(OC)c2)c(OC)c1 (stereo not given)	13	-0.5	-24	-10	nt	-7
CCc1ccccc1S(=O)(=O)Cc1ccc(C(=O)NC2CCCC2)o1	2	-0.9	3	1	2	3
CC1CC(C)(C)NCCNC(C)CC(C)(C)NCCN1 (stereo not given)	1	-0.8	5	14	7	3
CSc1n[nH]c(NC(=O)c2c(-c3c(Cl)cccc3Cl)noc2C)n1	6	0.3	4	-8	0	-3
O=C1CCC(C(=O)NCCCn2ccnc2)N1 (stereo not given)	9	0.4	8	-23	6	0

Sorted by value in CtBP-E1A blk (highest first): some entries from above
Molecule	D2 PAM	TRPML1 inh	CtBP-E1A blk	Six1-Eya2 blk
CCc1ccccc1S(=O)(=O)Cc1ccc(C(=O)NC2CCCC2)o1	3	1	2	3
CSc1n[nH]c(NC(=O)c2c(-c3c(Cl)cccc3Cl)noc2C)n1	4	-8	0	-3
COC(=O)C1=C(C)NC(=S)NC1c1ccc(-c2ccccc2C(=O)OC)o1 (stereo not given)	-2	22	-2	-5

Complete entries, quoted from the list. Screens in order: TRPV1 potentiator, TRPML1 ag, D2 PAM, TRPML1 inh, CtBP-E1A blk, Six1-Eya2 blk
CC(NC(=O)c1ccccc1)c1ccc(F)cc1 (stereo not given) reads -3, 0.0, -8, 60, 0, -2
CCc1ccccc1S(=O)(=O)Cc1ccc(C(=O)NC2CCCC2)o1 reads 2, -0.9, 3, 1, 2, 3
O=C1CCC(C(=O)NCCCn2ccnc2)N1 (stereo not given) reads 9, 0.4, 8, -23, 6, 0
Cc1ccc(OCC(=O)NNC(=S)NCc2ccccc2)cc1 reads 2, -0.3, -7, -11, 1, 2
CCc1cccc(C)c1NC(=O)CCCC(=O)O reads -29, -0.1, -11, -3, 6, 5

The list continues.
SMILES	TRPV1 potentiator	TRPML1 ag	D2 PAM	TRPML1 inh	CtBP-E1A blk	Six1-Eya2 blk
Cc1ccc2c(c1)C1CN(C)CCC1N2C(=S)Nc1ccc(Cl)cc1Cl (stereo not given)	-5	0.2	-13	12	-3	-2
FC(F)(F)c1cc(-c2ccco2)nc(NCc2ccccc2)n1	-10	-0.7	-12	13	21	18
O=C(O)/C=C/C(=O)N1CCN(c2ccc(F)cc2)CC1	-6	0.9	-10	3	-10	-11
Cc1nc(-c2ccccc2O)n(S(=O)(=O)N(C)C)n1	-24	-0.5	-5	-12	10	4
O=C(CN1C(=O)NC2(CCc3ccccc32)C1=O)c1c[nH]c2ccccc12 (stereo not given)	?	1.6	0	-15	-14	1
Cc1cc(C(=O)N2CCCC(N3CCN(c4ccc(F)cc4)CC3)C2)no1 (stereo not given)	-2	0.1	-19	-6	-4	2
CCOC(=O)NNc1cc(C(F)(F)F)ccn1	nt	0.4	-8	8	-2	3
CCOc1ccc(NC(=O)N2CCN(Cc3ccc4c(c3)OCO4)CC2)cc1	-6	0.2	-1	2	7	-2
CCCCc1[nH]c(=O)c(C#N)c2c1CSC(C)(C)C2	4	0.4	-5	-5	4	3
CCOC(=O)c1csc(-c2ccc(OC)c(OC)c2)n1	22	-0.6	9	-2	-1	-5
O=C(Nc1ccc(S(=O)(=O)NC2=NCCCCC2)cc1)c1ccco1	1	-0.3	0	-22	0	0
CCCn1c(SCC(=O)Nc2cccc(C)n2)nnc1-c1ccco1	5	-1.3	-14	-8	11	11
CCOc1ccc(NC(=O)N(C2CCCC2)C2CCN(C(C)=O)CC2)cc1	-1	-0.3	-3	-11	-18	14
COC(=O)c1ccc(OC(=O)c2cccnc2SC)cc1	1	1.2	1	5	13	0
CSc1ncccc1C(=O)OCc1ccccc1F	17	0.0	-9	-3	35	31
CN1CCN(S(=O)(=O)c2ccc(N(C)Cc3c(F)cccc3Cl)nc2)CC1	nt	-0.3	-1	8	0	-2
COc1ccccc1/C=C/C(=O)N1CCc2cc(OC)c(OC)cc2C1C (stereo not given)	15	1.4	1	5	-4	-3
C[C@@H]1CN([C@@H](C)CO)C(=O)CCCn2nncc2CO[C@@H]1CN(C)C(=O)c1ccc2ccn(C)c2c1	nt	-0.4	-1	-14	5	2
O=C1NC(=S)N/C1=C/c1cccn1-c1ccc([N+](=O)[O-])cc1	6	-0.5	2	0	-18	-14
O=C1c2ccccc2/C(=C\c2ccc(Br)s2)N1c1ccccc1	nt	0.3	14	-4	-3	-6
COc1cc(OC)cc(-c2nnc(SCc3ccc(C(=O)O)cc3)o2)c1	8	0.5	0	0	-6	-17
COC(=O)c1ccncc1C(=O)Nc1ccc(F)cc1	-5	2.3	-6	-20	5	4
COc1cc2cc(CCCOC(=O)CCCC(=O)O)oc(=O)c2cc1OC	-1	1.0	-13	4	-18	-15
O=C(CNc1ccc(Br)cc1)c1ccccc1	11	-0.8	-39	-7	8	-1
O=C(COC(=O)c1ccc(Br)cc1)Nc1ccccc1Br	0	3.2	-5	5	5	6
Oc1ccccc1-c1csc(-c2ccccc2)n1	-23	1.4	-8	11	8	25
S=C1NCCc2ccccc2C1c1ccccc1Cl (stereo not given)	?	-0.4	-44	3	-8	-11
COCCCNc1nc2c(-c3cccc(C)c3)nnn2c2ccccc12	-9	-0.6	-4	11	3	10
O=C(Cc1ccccc1Cl)NC1(O)C(=O)c2ccccc2C1=O	-38	0.7	-38	23	-28	2
Cc1ccsc1/C=N/NC(=O)c1ccc(Cn2cc(Br)cn2)o1	2	1.4	-18	17	-3	2
Cc1cc(C(=O)CN2C(=O)NC(c3ccccc3)(c3ccccc3)C2=O)c(C)n1Cc1ccco1	3	1.2	-1	-3	-7	-7
CC1CC(C)CN(CC(=O)NC(c2ccccc2)c2ccccc2)C1 (stereo not given)	-9	3.2	-18	-4	nt	-1
Fc1ccc(N2CCN(C(=S)NCC3CCCO3)CC2)cc1 (stereo not given)	12	0.2	-36	1	-2	-2
COCCN(C(=O)COC(=O)c1ccc2c(c1)OCO2)c1c(N)n(Cc2ccccc2)c(=O)[nH]c1=O	nt	-0.4	-2	3	0	1
CC(C)Cn1c(N)c(C(=O)CCl)c(=O)n(C)c1=O	2	-0.4	2	-2	3	2
O=C1c2cccc3cccc(c23)C(=O)N1CCN1CCN(CC(O)COCc2ccc(Cl)cc2)CC1 (stereo not given)	-1	3.3	-32	13	?	?
CCc1ccc(S(=O)(=O)N(C(=O)c2ccncc2)c2ccc(OC(=O)c3ccncc3)cc2)cc1	-2	2.4	-7	-20	-3	-3
O=C(Nc1ccc(F)cc1)N1CCc2ccccc2C1	-15	1.3	-7	6	0	29
CC(=O)c1c(OC(=O)c2ccco2)c2ccccc2n1C	-7	-1.8	?	-5	7	-9
O=C(Cc1ccc(Cl)c(Cl)c1)OCC(=O)c1ccc[nH]1	-9	1.1	-16	3	0	14

Entries above that bear a hit mark in CtBP-E1A blk:
compound | D2 PAM | TRPML1 inh | CtBP-E1A blk | Six1-Eya2 blk
O=[N+]([O-])c1ccc2[nH]c(O)c(N=NC(=S)Nc3cccnc3)c2c1 | -13 | -7 | -88* | -80*

Next part
SMILES	TRPV1 potentiator	TRPML1 ag	D2 PAM	TRPML1 inh	CtBP-E1A blk	Six1-Eya2 blk
Oc1ccc2ccccc2c1N=Nc1ccccc1F	8	0.3	-13	13	?	-88*
O=C(NC1CCSc2ccccc21)c1ccccc1Br (stereo not given)	-12	0.0	-17	8	9	2
CCc1ccccc1NC(=O)C1COc2ccccc2O1 (stereo not given)	6	-1.4	-12	?	5	5
CSc1nc(N)nc2c1ncn2CC(=O)Nc1ccc(C)c(C)c1	nt	1.0	-5	36	3	2
Cc1ccc(C)c(CN2CCCN(Cc3cc(C)ccc3C)S2(=O)=O)c1	4	-0.5&1.7	-4	72&91	-1	-9
Brc1ccc(/C=N/Nc2ccccn2)cc1	-8	0.1	-11	-2	2	1
COc1cc(/C=C/C(=O)OCC(=O)c2ccc(OC(F)F)cc2)ccc1O	nt	4.6	-11	-15	4	-9
O=C(CSCCc1ccccn1)Nc1ccc(Br)cn1	9	0.5	-10	-2	-2	5
CC(C)NC(=O)c1cc(-c2ccc3c(c2)OCO3)on1	12	-1.4	-4	-11	-4	0
O=C(NC(=S)NCC1CCCO1)c1cccc([N+](=O)[O-])c1 (stereo not given)	-2	-0.1	23	20	2	-1
CCOc1ccc(N)c(SSc2cc(OCC)ccc2N)c1	-12	-0.1	-28	-4	nt	?
CCOc1c2ccc(C(=O)N[C@H](C)C3CCCCC3)cc2nn1CCOC	27	-0.1	-4	-2	-17	14
OCC[C@@H]1C[C@@H](O)[C@H](O)[C@]2(OCCCc3ccccc32)O1	-10	-0.1	-2	-11	8	-1
COc1ccccc1CN(C)C(=O)c1ccccc1Sc1ccccc1C#N	?	2.0	-17	9	1	10
CCOc1ccc2c(c1)c(N=Nc1cccc(C(=O)O)c1)c(O)n2C	1	-0.7	-14	-9	?	?
CC1=N/C(=C\c2ccc3c(c2)OCO3)C(=O)N1c1ccc(C(=O)O)cc1	-13	0.9	-21	4	-6	-4
C[C@H]1COC(=O)CC/C=C\C[C@H](CC(=O)N(CCO)Cc2ccccc2)C(=O)N1	nt	-0.1	-3	5	10	10
CC1CCCCN1C(=O)Nc1ccccc1Cl (stereo not given)	12	-0.1	-5	42	nt	0
COc1ccc(Cn2cnc3c4cc(F)ccc4n(C)c3c2=O)cc1	8	-0.4	-1	2	-19	-11
O=C(O)C1(Nc2ccc(Cl)cc2)CCCC1	nt	0.1	-2	2	4	3
Cc1ccc(-c2nc3ccccc3n2C)o1	3	1.0	10	0	-1	0

Bioassay records from PubChem BioAssay.
